Screens (PubChem BioAssay)
MenB inh – Mtb MenB enzyme inhibition; inhibition, %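 (about 12 µg/mL by stock and volumes)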; MenB enzyme assay, absorbance read-out; some hits fall short of the stated cut; hit rate 0.43% among 100,000; P9WNP5;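 active = mean of two replicates above 30%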;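 note: 0% = no compound and 100% = wells with inactive enzyme; the first replicate is given; strong numbers were not always called active; inactives centre near -10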
Target sequence (P9WNP5 whole entry, looked up): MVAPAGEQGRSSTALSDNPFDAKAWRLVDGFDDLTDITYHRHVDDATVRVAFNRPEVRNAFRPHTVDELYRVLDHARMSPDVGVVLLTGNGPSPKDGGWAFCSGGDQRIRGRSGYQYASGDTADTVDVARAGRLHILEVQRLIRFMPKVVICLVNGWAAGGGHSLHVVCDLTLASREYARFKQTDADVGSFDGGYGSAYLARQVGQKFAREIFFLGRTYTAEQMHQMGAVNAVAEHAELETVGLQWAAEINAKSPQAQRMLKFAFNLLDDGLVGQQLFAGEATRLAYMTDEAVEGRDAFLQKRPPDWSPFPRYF
MbtI inh – blocks the Mycobacterium tuberculosis siderophore enzyme MbtI; P9WFX0; purified MbtI enzyme, fluorescence intensity read-out; inhibition, %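 (about 17 µg/mL by stock and volumes)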; hit rate 0.89% among 100,000; AID 493033;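 active = above 50% in both replicates, above 80% if mildly self-fluorescent; inactive = the rest, strongly fluorescent compounds included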;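 note: 0% = mean of negative and 100% = mean of positive controls; one replicate is shown; some compounds called inactive have numbers as strong as hits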
Target sequence (P9WFX0 whole entry, looked up): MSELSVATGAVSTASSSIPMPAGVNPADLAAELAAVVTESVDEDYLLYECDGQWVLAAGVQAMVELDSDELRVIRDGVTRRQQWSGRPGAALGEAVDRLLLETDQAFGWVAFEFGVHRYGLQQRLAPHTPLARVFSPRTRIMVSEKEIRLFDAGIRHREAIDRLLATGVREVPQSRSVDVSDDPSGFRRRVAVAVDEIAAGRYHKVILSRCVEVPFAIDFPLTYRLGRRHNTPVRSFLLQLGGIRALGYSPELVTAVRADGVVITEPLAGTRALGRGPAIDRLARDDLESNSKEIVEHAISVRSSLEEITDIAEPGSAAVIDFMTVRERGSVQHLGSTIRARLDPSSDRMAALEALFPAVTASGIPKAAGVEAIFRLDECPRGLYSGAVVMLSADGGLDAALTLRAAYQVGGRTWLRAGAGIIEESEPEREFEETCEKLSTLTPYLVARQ
Polio RdRp inh – inhibitors of poliovirus RNA polymerase binding and polymerization; % elongation, % (compound at 16.7 µg/mL); P03300; hit rate 0.66% among 150,000; AID 588519; poliovirus polymerase elongation, fluorescence polarization; active compounds read low; in the data active = % elongation below about 90%; note: some results filed as inactive read as strong as hits
Polio RdRp inh intensity – also measured in Polio RdRp inh; calls as there; % elongation; measured here: total intensity read-out; formula for this scale not given here;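 total fluorescence in place of polarization; lower means less elongation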
Numbers without * were called inactive; x = no result given. Compounds as they come (roughly 1.8% active in at least one column).

SMILES	MenB inh	MbtI inh	Polio RdRp inh	Polio RdRp inh intensity
Cc1cc(NC(=O)CN2CCN(S(=O)(=O)c3ccc(Cl)cc3)CC2)no1	8.8	-1.2	100.0	106.0
O=C(c1ccc(Cl)c(Cl)c1)c1nccn1-c1ccccn1	x	-5.2	104.0	105.0
Cc1cc2nc(C)c(CCC(=O)N3CCN(Cc4ccc(C(C)C)cc4)CC3)c(C)n2n1	-23.4	-3.1	104.0	109.0
NCCCC(=O)OC1CCCCC1	-12.7	-9.2	102.0	102.0
CN=c1scc(C)n1/N=C/c1ccco1	-149.5	-3.1	110.0	114.0
Cc1ccc2nc(CN3CCc4sccc4C3c3cccs3)cn2c1 (stereo not drawn)	-20.3	-68.5	107.0	108.0
COC(=O)c1[nH]c2c(c1C)C(=O)CC(c1ccc(OC)cc1)C2 (stereo not drawn)	1.3	-4.4	99.0	103.0
O=C(COc1ccc2ccccc2c1)Nc1ccc2nn(-c3ccccc3)nc2c1	2.3	-7.5	101.0	102.0
C=CCSc1nc2ccccc2n1Cc1cc(C(=O)OC)c(C)o1	-2.9	31.1	101.0	98.0
CS(=O)(=O)N1CCN(S(C)(=O)=O)C2OCCOC21 (stereo not drawn)	-5.1	-13.3	101.0	101.0
CCOC1=CC2=C(CC(C)(C)CC2=O)OC1N(C)C (stereo not drawn)	-69.8	6.7	102.0	102.0
CCOC(=O)N1CCN(C(=O)C2c3ccccc3C(=O)N(c3ccc(OC)cc3)C2c2ccc(OC)cc2)CC1 (stereo not drawn)	4.1	-1.8	100.0	102.0
O=C(CSc1ncnc2c1nnn2-c1ccc(F)cc1)N1CCCc2ccccc21	4.8	-2.3	104.0	106.0
CC1CC(C)CN(C(=O)c2ccc(CNS(=O)(=O)c3ccc(F)cc3)cc2)C1 (stereo not drawn)	-26.3	-10.1	103.0	98.0
CCC(=O)N1N=C(c2ccccc2)CC1c1ccc(N(C)C)cc1 (stereo not drawn)	-13.3	0.1	101.0	96.0
CC(=O)NCc1ccc(C(=O)CSc2nnc(-c3cccc(C)c3)n2-c2ccc(C)cc2)o1	-2.5	19.1	102.0	103.0
CCN(CC)c1ccc(C=Nc2ccc(S(=O)(=O)N3CCCC3)cc2)c(O)c1	-20.8	12.1	104.0	111.0
O=C(c1c(NS(=O)(=O)c2ccc3c(c2)OCCO3)sc2c1CCCC2)N1CCOCC1	-4.2	17.3	102.0	104.0
CC(C)N(Cc1ccccc1)C(=O)C(C)(C)C	-15.2	-22.5	103.0	104.0
CN(C)C(CNC(=O)C(c1ccccc1)c1ccccc1)c1ccco1 (stereo not drawn)	-20.7	-4.9	105.0	101.0
O=C(O)Cc1cc(I)c(Oc2ccc(O)c(I)c2)c(I)c1	0.9	-8.9	102.0	100.0
CCc1ccccc1NC(=O)CCSc1nc2n[nH]c(C)c2c(=N)n1-c1cccc(Cl)c1	-36.7	-3.6	102.0	98.0
CC(=O)NC(=S)Nc1ccccc1N1CCN(C(=O)c2ccccc2)CC1	0.0	-8.7	100.0	104.0
CCOC(=O)c1cc(-c2ccc(Cl)s2)nn1C(C)=O	-0.6	-14.6	104.0	111.0
O=C1CSC(c2cn(-c3ccccc3)nc2-c2ccccc2)N1CCO (stereo not drawn)	x	-4.2	107.0	105.0
(further entries)
SMILES	MenB inh	MbtI inh	Polio RdRp inh	Polio RdRp inh intensity
Cc1ccc(O)c(NC(=O)c2ccc(Br)o2)c1	-34.7	0.2	103.0	99.0
O=C(NCc1ccco1)c1nc2c(nnn2Cc2cccc(Cl)c2)c(=O)[nH]1	-37.7	0.4	102.0	103.0
CCOc1ccc2[nH]c(=O)c(CN(C(C)=O)C3CCCC3)cc2c1	-1.7	87.2	103.0	103.0
O=C(Cc1n[nH]c(=O)c2ccccc12)NCc1ccccc1	28.2	-5.6	101.0	104.0
CCC(C)c1ccc(NC(=O)C2CCCN(c3ncccn3)C2)cc1 (stereo not drawn)	-19.4	10.1	102.0	102.0
COCCN1C(=O)c2ccccc2C(C(=O)NCCc2cccc(C)c2)C1c1c[nH]c2ccccc12 (stereo not drawn)	-21.2	-9.7	101.0	99.0
COC(C(=O)Nc1ccc(Cl)cn1)c1ccccc1 (stereo not drawn)	2.3	x	107.0	106.0
C=CCN(C(=O)c1cc2cc3cc(OC)ccc3nc2s1)c1ccccc1	-26.8	-7.5	104.0	107.0
CCN(C#N)c1nc(N(C)C)nc(N2CCOCC2)n1	9.1	1.9	105.0	104.0
CCOC(=O)C1=CN(C)C=C(C(=O)OCC)C1c1cc(Br)c(O)c(OC)c1	-15.2	-114.4	100.0	109.0
O=C1Cc2ccccc2C(=O)N1Cc1ccco1	x	-7.0	76.0*	75.0*
O=C1c2ccccc2-c2nn(C(=O)Cc3ccccc3)c3cccc1c23	6.9	2.0	104.0	109.0
COc1ccc(C2=NN(CCC(=O)NCc3ccccc3)C(=O)CC2)cc1	-3.9	6.4	100.0	103.0
O=CN1CCN(Cc2cccc(Cl)c2)CC1	-2.0	-1.9	100.0	103.0
CCOC(=O)c1c(C)oc(-c2ccccc2)c1S(=O)(=O)N1CCN(c2ncc(C(F)(F)F)cc2Cl)CC1	5.5	-0.1	103.0	104.0
CCOC(=O)c1c(C)[nH]c(C(=O)OCc2nc(N)nc(Nc3ccccc3C)n2)c1C	-2.6	-5.2	105.0	112.0
O=CNC1CCCc2c1[nH]c1ccccc21 (stereo not drawn)	-36.2	-43.2	100.0	100.0
CCOC(=O)CCSc1nc(C)c2ccccc2n1	-7.2	25.4	98.0	100.0
Cc1ccc(C(=O)N/C(=C/c2ccc3c(c2)OCO3)C(=O)O)cc1	-4.8	3.6	99.0	103.0
O=C(CO/N=C/c1ccco1)N1N=C2/C(=C/c3cccs3)CCCC2C1c1cccs1 (stereo not drawn)	-25.6	20.5	105.0	104.0
CCOC(=O)Cn1cnc2sc(C(=O)OCC)c(C)c2c1=O	47.7*	15.5	102.0	101.0
CCn1c(=O)c2cc(S(=O)(=O)NC3CCCCC3)ccc2n(CC)c1=O	-5.5	15.4	103.0	104.0
CCOC(=O)/C(C#N)=C1/CCCN1	-18.8	-0.8	102.0	104.0
COc1cc(C(=O)NN)ccc1OC(C)C	1.7	-17.4	104.0	109.0
O=C(CC(NCCN1CCOCC1)C(=O)O)Nc1ccc2ccccc2c1 (stereo not drawn)	-6.4	14.9	102.0	107.0
Further results.
SMILES	MenB inh	MbtI inh	Polio RdRp inh	Polio RdRp inh intensity
CCCN(CCC)C(=O)c1c(NC(=O)c2cccs2)sc2c1CCC(C)C2 (stereo not drawn)	-16.6	8.5	103.0	99.0
O=C(COC(=O)CC1CCCC1)NC1CCCCCC1	x	-13.2	103.0	107.0
Cc1cc(C)n2nc(SC(C)C(=O)NCc3ccccc3Cl)nc2n1 (stereo not drawn)	1.5	8.1	101.0	104.0
COc1ccc(Br)c(-c2nc(N)nc(NC3CC3)n2)c1	-18.2	-4.7	105.0	104.0
O=C(COc1cccc(-n2cnnn2)c1)NCC1CCCCC1	-14.1	17.3	103.0	107.0
Cc1cccc2oc(-c3ccc(N=Cc4cc(C(=O)O)ccc4O)cc3)nc12	-24.8	x	41.0	249.0
O=C(O)c1cccnc1C(=O)O	-2.1	-29.9	100.0	100.0
Cc1cc(NC(=O)CN2C(=O)CC(c3ccco3)Sc3ccccc32)no1 (stereo not drawn)	-9.7	-3.7	103.0	102.0
COc1cccc(Nc2nc(-c3ccccc3)cs2)c1	x	14.3	101.0	102.0
C(=N\C(/N=C/c1ccco1)c1ccco1)/c1ccco1	2.1	-154.1	98.0	108.0
CC(C)(C)C1CCc2sc(-c3nnc(CN4CCN(C(=O)c5cccs5)CC4)o3)cc2C1 (stereo not drawn)	-20.2	-13.2	102.0	110.0
O=C(CSc1ccc(-c2ccccc2)nn1)N1CCCC1	0.0	3.0	101.0	103.0
Cc1ccc(SCC(=O)Nc2ccc(C)cc2C)cc1	-7.0	x	106.0	103.0
CN(C)CCNc1ncnc2sc(-c3ccccc3)cc12	-9.3	106.1	87.0*	68.0*
CSc1ccc(C2N[C@@H](C(=O)O)C(C)(C)S2)cc1 (stereo partly drawn)	-1.6	-7.0	102.0	107.0
Cc1cn2c(CO)c(C)nc2s1	-24.5	-0.2	104.0	102.0
COC(=O)c1ccc(C2C(C#N)=C(C)NC(C)=C2C(=O)Nc2ccccc2)cc1 (stereo not drawn)	-23.0	192.6	104.0	109.0
CCN1C(=O)C2CC(C)=C(C)CC2C1=O (stereo not drawn)	-8.8	-2.6	97.0	107.0
O=c1[nH]c(CN2CCN(Cc3ccccc3)CC2)nc2ccccc12	4.3	-4.2	104.0	102.0
CC1=C(COc2c3occc3cc3ccc(=O)oc23)CC(C)(C)CC1	1.3	2.7	101.0	104.0
c1ccc(COc2cccc(CNn3cnnc3)c2)cc1	-7.9	9.7	100.0	93.0
CN/C=C/C(=O)C(F)(F)F	6.3	20.6	106.0	103.0
CCS(=O)(=O)c1ccc(OC)c(N=NC2=C(O)CC(C)(C)CC2=O)c1	-0.5	0.4	103.0	103.0
O=C(O)/C=C/c1ccc(OC(F)(F)F)cc1	-1.2	-10.7	106.0	108.0
Cc1c(Cl)cccc1-n1ncc(C(=O)O)c1C1CCN(C(=O)OC(C)(C)C)CC1	20.3	0.9	100.0	104.0
(list continues)
SMILES	MenB inh	MbtI inh	Polio RdRp inh	Polio RdRp inh intensity
COCCn1c(Cc2ccccc2)nnc1SCc1nnc(-c2ccccc2)o1	-15.0	0.0	106.0	114.0
Cc1ccc(N2C(=O)CC(C(=O)Nc3cccc(-n4cnnn4)c3)C2c2cccs2)cc1 (stereo not drawn)	0.8	11.4	102.0	99.0
CCNC(=S)N/N=C/c1cc(OC)c(OC)c(OC)c1	-9.2	6.5	100.0	98.0
O=S(=O)(c1ccc2oc3ccc(S(=O)(=O)N4CCCC4)cc3c2c1)N1CCCC1	-1.4	12.3	101.0	104.0
CCN(CC(=O)Nc1cc(Cl)ccc1C)CC(=O)NC1CC1	-20.0	-7.5	x	x
NCCCOCc1ccccc1	-7.9	-12.8	103.0	110.0
N=C(N=C(N)N)N1CCc2ccccc21	-36.8	8.7	102.0	101.0
Cc1ccc(S(=O)(=O)N2CCC(C(=O)O)CC2)c(C)c1	5.2	-8.1	98.0	99.0
Cc1ccccc1-c1noc(-c2cc3cc(C(C)(C)C)cc(O)c3oc2=O)n1	-10.6	1.4	101.0	103.0
CC(=O)Nc1ccc2c(COC(=O)C3CC3C)cc(=O)oc2c1 (stereo not drawn)	-29.1	101.3	102.0	110.0
COc1ccc(CCNC(=O)c2cc(C)on2)cc1OC	-6.4	-10.1	102.0	102.0
N#CCSc1nc2c(sc3ccccc32)c(=O)n1C1CCCCC1	-14.3	11.3	102.0	107.0
COc1ccc2cc(C#N)c(=O)oc2c1	-14.1	x	131.0	152.0
Cc1ccc2nc(NC(=O)C(NC(=O)c3ccccc3)C(C)C)sc2c1 (stereo not drawn)	x	-5.7	101.0	96.0
Cc1ccc(S(=O)(=O)NCCSc2nnnn2C)cc1	-4.2	x	99.0	96.0
COC(=O)CSC1=C(C#N)C(c2ccc3c(c2)OCO3)C2=C(CCCC2=O)N1 (stereo not drawn)	-15.4	-5.6	106.0	101.0
CCN(CC)C(=O)CN(C)c1nc(-c2ccccc2)nc2ccccc12	-36.3	4.7	95.0	104.0

Record cards, from the list above:
`CCN(CC)C(=O)CN(C)c1nc(-c2ccccc2)nc2ccccc12` across the screens: MenB inh = -36.3; MbtI inh = 4.7; Polio RdRp inh = 95.0; Polio RdRp inh intensity = 104.0
`N#CCSc1nc2c(sc3ccccc32)c(=O)n1C1CCCCC1` across the screens: MenB inh = -14.3; MbtI inh = 11.3; Polio RdRp inh = 102.0; Polio RdRp inh intensity = 107.0

Of the compounds above, 11 have a thiophene ring, fused or not:
SMILES	MenB inh	MbtI inh	Polio RdRp inh	Polio RdRp inh intensity
Cc1ccc2nc(CN3CCc4sccc4C3c3cccs3)cn2c1 (stereo not drawn)	-20.3	-68.5	107.0	108.0
O=C(c1c(NS(=O)(=O)c2ccc3c(c2)OCCO3)sc2c1CCCC2)N1CCOCC1	-4.2	17.3	102.0	104.0
CCOC(=O)c1cc(-c2ccc(Cl)s2)nn1C(C)=O	-0.6	-14.6	104.0	111.0
C=CCN(C(=O)c1cc2cc3cc(OC)ccc3nc2s1)c1ccccc1	-26.8	-7.5	104.0	107.0
O=C(CO/N=C/c1ccco1)N1N=C2/C(=C/c3cccs3)CCCC2C1c1cccs1 (stereo not drawn)	-25.6	20.5	105.0	104.0
CCOC(=O)Cn1cnc2sc(C(=O)OCC)c(C)c2c1=O	47.7*	15.5	102.0	101.0
CCCN(CCC)C(=O)c1c(NC(=O)c2cccs2)sc2c1CCC(C)C2 (stereo not drawn)	-16.6	8.5	103.0	99.0
CC(C)(C)C1CCc2sc(-c3nnc(CN4CCN(C(=O)c5cccs5)CC4)o3)cc2C1 (stereo not drawn)	-20.2	-13.2	102.0	110.0
CN(C)CCNc1ncnc2sc(-c3ccccc3)cc12	-9.3	106.1	87.0*	68.0*
Cc1ccc(N2C(=O)CC(C(=O)Nc3cccc(-n4cnnn4)c3)C2c2cccs2)cc1 (stereo not drawn)	0.8	11.4	102.0	99.0
N#CCSc1nc2c(sc3ccccc32)c(=O)n1C1CCCCC1	-14.3	11.3	102.0	107.0
